Screening results from PubChem.
Mtb hypoxia inh = Mtb hypoxia fluorescent reporter inhibition | M. tuberculosis hypoxia-regulated fluorescent reporter, fluorescence | actives 0.1% (n = 300,000) | AID 1159583 | fluorescence inhibition, % (test concentration not listed);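 active = 35 to 45% if threefold the growth effect, above 45% if 1.5-fold the growth effect; inactive = the rest, general growth blockers included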;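 also: wells of about 50 µL received 100 nL stock; 0% = vehicle wells and 100% = reference inhibitor wells; whole bacteria with a GFP reporter of the hypoxia response; strong numbers were not always called active; many hits fall short of the cut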
Bead autofluor = compound fluorescence in toxin protease inhibitor counterscreen; compound autofluorescence counterscreen, microsphere flow cytometry; hits give high values; fluorescence intensity (no concentration beside the values); actives 3.1% (n = 360,000); AID 624483;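 active = at least 3 SD above the mean of all compounds, about 16000 in these data; inconclusive = too few beads counted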;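 also: 100 nL of 1 mM stock went into each well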
PrP UTR inh = inhibition of PrP 5' UTR reporter expression | actives 0.35% (n = 340,000) | inhibition, % (concentration not given with the values) | cell-based PrP 5' UTR mRNA reporter, plate reader | AID 488862;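 active = every replicate at 50% or more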;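 also: 0 = median of the neutral control wells; tested in H4 reporter cells; numbers are from one replicate; inactives centre near -14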
BJeLR lethal = kills HRASV12-expressing BJeLR cells. BJeLR (HRASV12) viability, CellTiter-Glo ATP luminescence, 48 h; reference of the scale not given here. inhibition, % (no concentration beside the values). actives 0.17% (n = 300,000);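 active = replicate mean above 50%; inconclusive = above 50% but judged a plate artefact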;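 also: 50 nL library stock added to about 25 µL; numbers are from one replicate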
ugtP null kill = growth inhibition of S. aureus ugtP deletion strain | S. aureus RN4220 ugtP deletion, OD600 growth, 16 h; some inactives read as strong as hits | growth inhibition, % (test concentration not listed) | actives 0.54% (n = 330,000) | AID 1259309;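 active = z-score under -3 and OD600 up to 0.15 on both plates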;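 also: plate controls were untreated wells for no effect and antibiotic for full effect; wells of about 80 µL received 100 nL stock; the first replicate is given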
Sa RN4220 lethal = kills Staphylococcus aureus RN4220; S. aureus RN4220 growth, OD600, 16 h; inhibition, % (no concentration beside the values); actives 0.33% (n = 330,000); AID 1259311;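 active = z-score of -3 or lower and OD600 up to 0.18 on both plates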;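 also: plate controls were untreated cells for no effect and reference antibiotic for full effect; stock transfer was 100 nL into about 80 µL; one replicate is shown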
Mtb hypoxia inh growth = second read-out of Mtb hypoxia inh, no call of its own (marks repeat the call); growth inhibition, %; measured here: M. tuberculosis growth (absorbance);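 0% = vehicle and 100% = reference antibiotic; read after six days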
Active calls of the source: *; ? = inconclusive; / = no result given.

SMILES	Mtb hypoxia inh	Mtb hypoxia inh growth	Bead autofluor	PrP UTR inh	BJeLR lethal	ugtP null kill	Sa RN4220 lethal
O=C(O)CN(Cc1ccccc1)S(=O)(=O)c1ccc(F)cc1	5	8	20545*	-26	12	4	3.5
O=C(NCc1nnnn1-c1ccc(F)c(F)c1)c1cc2ccccc2o1	4	10	5199	-24	15	1	1.2
O=C(N/N=C/C1C(c2ccccc2)C1(Cl)Cl)c1cccc(Br)c1 (stereo unspecified)	/	/	2738	-5	9	/	/
Cn1cccc1C=NNC(=O)Cc1cccs1	-1	-1	/	/	/	10	2.9
COCn1c(=O)c2c(nc(SC3=NCCS3)n2Cc2ccccc2C)n(COC)c1=O	-2	-1	9645	11	-7	1	2.2
CCc1c(C)nc(SCc2cccnc2)[nH]c1=O	1	-3	6228	-2	-1	0	3.2
Cc1ccc(N)c(C)c1	-5	0	5840	-12	/	5	2.6
O=C(O)CSc1c(-c2cccs2)[nH]c2ccccc12	2	-1	2384	-6	6	-8	0.2
CC(C)n1cc(/C=C2/SC(=O)N(CC(=O)N3CCCC3)C2=O)c2ccccc21	-1	7	4707	9	-6	-1	5.3
COc1cccc2cc(/C(C)=N/NC(=O)c3ccco3)oc12	/	/	4436	-17	14	/	/
Cc1ccc(/C=N/N=C2\SCC(=O)N2CC2CC2)cc1	/	/	4879	-14	10	/	/
Nc1c(C(=O)NCCN2CCOCC2)c2nc3ccccc3nc2n1Cc1ccco1	-12	6	2580	-15	-3	-6	3.6
CCOC(=O)c1nn(-c2c(C)n(C)n(-c3ccccc3)c2=O)cc1O	20	8	2931	-16	-1	-4	-11
CCN1C(C)=C(C)SC1=C1SC(=S)N(C2CCCCC2)C1=O	4	7	/	/	/	3	0.0
O=C1C2CCCN2C(=O)N1CCCN1CCN(c2cccc(Br)c2)CC1 (stereo unspecified)	-6	2	3951	-24	29	6	2.0
CCCCn1nc(C(=O)NCc2ccccc2CN2CCCC2)c2ccccc2c1=O	12	5	9187	4	/	1	3.9
COC(=O)c1ccc(CNC(=O)Cn2nnnc2CN(C)C(C)C)cc1	-1	-1	/	-14	-3	17	4.9
CC=CC=CC(=O)N1CC2(CC(c3cccc(NC(=O)CC(c4ccccc4)c4ccccc4)c3)=NO2)CC1C(N)=O (stereo unspecified)	11	12	/	/	/	5	7.9
CCOc1ccc(S(=O)(=O)N2CCN(S(=O)(=O)c3ccc(OCC)cc3)C(C)C2)cc1 (stereo unspecified)	1	4	17504*	-11	-1	11	9.5
O=C(NN=Cc1cc(Cl)ccc1O)c1ccc(S(=O)(=O)N2CCCCC2)cc1	1	-6	/	/	/	17	2.2
Cc1nn(CCN)c(C)c1Cl	10	4	3346	-13	3	2	1.7
N#Cc1cnn(-c2ccc(F)cc2)c1N	-5	11	3154	-1	-5	-2	2.0
CCc1ccc(NC(=O)COn2nnc3ccc(S(=O)(=O)N(C)C)cc32)cc1	15	10	9447	-1	-4	-5	5.0
COC(=O)[C@]1(C)N[C@H](CN(C)S(=O)(=O)c2ccc(-c3ccccc3)cc2)[C@@H]2C(=O)N(Cc3ccccc3)C(=O)[C@@H]21	5	12	3385	-23	/	2	4.1
Cn1c(N)c(N=O)c(=O)n(C)c1=O	3	3	3931	-9	-6	4	2.8
CCC(=O)Nc1cccc(-c2cn3cccc(C)c3n2)c1	-1	-3	/	-40	4	0	-0.4
CCOc1ccccc1Oc1cn[nH]c1-c1ccc(OC)cc1O	8	10	2820	-20	-5	-17	-16
CC1CCCN(S(=O)(=O)c2ccc(S(=O)(=O)N3CCCC3)cc2)C1 (stereo unspecified)	13	6	3539	-30	5	3	5.0
CCCC(=O)Nc1ccc(Cl)c(-c2nc3ncccc3o2)c1	8	10	3483	-17	-6	-4	2.7
O=C(OCc1ccc([N+](=O)[O-])cc1)c1cc2ccccc2oc1=O	-7	10	2847	0	-3	-1	0.9
CCOc1ccc(Br)cc1C(=O)N/N=C/c1ccc([N+](=O)[O-])cc1	/	/	4325	-17	4	/	/
CCCCc1c(C)nc2ccc(OC)cc2c1SCCC(=O)O	18	13	4699	4	1	-2	10
Cc1cccc(N(C(=O)c2csnn2)C(C(=O)NC2CCCCC2)c2ccccn2)c1C (stereo unspecified)	-14	5	2846	-6	-1	-4	2.9
Cc1ccc(S(=O)(=O)N2CCCC2CNC(=O)C(=O)NCc2ccccn2)cc1 (stereo unspecified)	-12	-3	6692	-8	-5	3	3.5
CC(=O)N1CCN(C(=O)c2cc(S(=O)(=O)N(C)Cc3ccccc3)ccc2Cl)CC1	8	4	/	-22	/	-1	6.4
CCOC(=O)N1CCN(c2c(NCc3ccc(Cl)cc3)c(=O)c2=O)CC1	0	2	5297	-88	14	0	5.4
O=C(Cn1cc(C=NNC(=O)c2ccccc2Br)c2ccccc21)Nc1ccc(F)cc1	-2	-4	/	/	/	-15	-1.4
CCC(=O)Nc1ccc(S(=O)(=O)NCc2ccco2)cc1	16	4	8654	-25	-4	-2	2.6
Cc1ccccc1Cn1ccc(NC(=O)c2nc3ncccn3n2)n1	/	/	3147	-8	-1	-2	-0.2
CS(=O)(=O)N1CCC(C(=O)NCCc2ccccc2)CC1	15	2	5955	-23	4	-1	3.9

Reprinted at random: two compounds from above
SMILES	Mtb hypoxia inh	Mtb hypoxia inh growth	Bead autofluor	PrP UTR inh	BJeLR lethal	ugtP null kill	Sa RN4220 lethal
COC(=O)[C@]1(C)N[C@H](CN(C)S(=O)(=O)c2ccc(-c3ccccc3)cc2)[C@@H]2C(=O)N(Cc3ccccc3)C(=O)[C@@H]21	5	12	3385	-23	/	2	4.1
O=C(Cn1cc(C=NNC(=O)c2ccccc2Br)c2ccccc21)Nc1ccc(F)cc1	-2	-4	/	/	/	-15	-1.4

Carrying on.
SMILES	Mtb hypoxia inh	Mtb hypoxia inh growth	Bead autofluor	PrP UTR inh	BJeLR lethal	ugtP null kill	Sa RN4220 lethal
COc1ccc(C(Cl)=C(c2ccc(OC)cc2)c2ccc(OC)cc2)cc1	4	5	6015	-2	8	35	-4.9
Cc1ccc(S(=O)(=O)N2CCCCC2)cc1NC(=O)CNc1ccc(C(F)(F)F)cc1	4	-1	?	-7	-10	-1	0.2
COc1cc(C=NNC(=O)COc2ccc(Cl)cc2)ccc1OS(=O)(=O)c1ccc(C)cc1	11	6	/	/	/	-37	-1.3
O=C(NCCCN1CCCCCC1)c1ccc(CS(=O)(=O)Cc2ccccc2F)o1	6	9	2930	-15	/	-2	-7.8
OCCC1CN(Cc2ccc3c(c2)CCO3)CCN1Cc1ccc(F)cc1 (stereo unspecified)	18	2	2190	-3	-11	-2	2.4
O=C(NCC1CC1)c1ccc(Oc2cc(Cl)cc(Cl)c2)o1	-7	9	5282	-32	-1	-19	4.6
O=C(Oc1ccc2c(c1)O/C(=C\c1ccncc1)C2=O)c1ccccc1	8	4	2047	-9	-8	-4	10
CC(=NNC(=O)c1ccc(O)cc1)c1cccc([N+](=O)[O-])c1	12	7	/	/	/	12	-0.2
Cn1c(CNC(=O)c2ccc(Cl)cc2)nnc1SCC(=O)NC1CCCC1	-1	-3	3858	-29	-6	8	3.8
Cc1cccc2nc(-c3ccccc3)nc(N3CCC(O)(c4ccc(Cl)cc4)CC3)c12	-1	8	7329	-2	3	-35	-9.7
CCOC(=O)/C(C#N)=C/c1cc2ccccc2nc1N1CCOCC1	1	2	2634	-3	6	3	-1.6
CC(C)(C)C(CO)NC(=O)c1ccc[nH]1 (stereo unspecified)	5	3	4029	-5	/	1	5.1
CCSc1nnc(N)s1	6	3	15729	-19	3	3	0.9
CCOC(=O)c1c(NC(=O)C(=O)NN=Cc2ccc(OCC)cc2)sc2c1CCCCC2	10	12	/	/	/	-6	0.1
Cc1c(Cl)cccc1NC(=O)CN1CCN(CCO)CC1	5	6	22331*	-15	9	10	4.6
O=C(NCC(Cl)c1ccc2ccccc2c1)c1c(F)cccc1F (stereo unspecified)	-6	-6	4101	-12	-3	-6	-1.4
O=C(Cn1c(=O)n(CCC(=O)N2CCCCC2)c(=O)c2sccc21)NCc1ccccc1	-4	2	5332	-1	-1	3	2.1
Cc1ccc(C)c(OCC(=O)N/N=C/c2c(C)nn(-c3ccccc3)c2Cl)c1C	/	/	9723	-16	-1	/	/
O=C(CCc1ccc(S(=O)(=O)N2CCOCC2)cc1)N/N=C/c1cccc(O)c1	/	/	2253	3	0	/	/
O=c1c2ccccc2ncn1-c1ccccc1[N+](=O)[O-]	19	7	/	-8	-7	4	3.0

A draw from above in order of SMILES length, low to high:
SMILES	Mtb hypoxia inh	Mtb hypoxia inh growth	Bead autofluor	PrP UTR inh	BJeLR lethal	ugtP null kill	Sa RN4220 lethal
CC(C)(C)C(CO)NC(=O)c1ccc[nH]1 (stereo unspecified)	5	3	4029	-5	/	1	5.1
O=C(NCC1CC1)c1ccc(Oc2cc(Cl)cc(Cl)c2)o1	-7	9	5282	-32	-1	-19	4.6
Cc1cccc2nc(-c3ccccc3)nc(N3CCC(O)(c4ccc(Cl)cc4)CC3)c12	-1	8	7329	-2	3	-35	-9.7

Continued:
SMILES	Mtb hypoxia inh	Mtb hypoxia inh growth	Bead autofluor	PrP UTR inh	BJeLR lethal	ugtP null kill	Sa RN4220 lethal
CCOc1ccc2nc(SCC(=O)Nc3nonc3C)[nH]c2c1	/	/	3814	-19	-15	/	/
CCn1c(C)nnc1SCC(=O)Nc1ccc(C(C)=O)cc1	5	10	3587	-1	-5	10	4.3
C=CCn1cc(/C=N\NC(=O)c2cc3c(ccc4ccccc43)o2)c2ccccc21	/	/	2449	2	6	/	/
O=C(c1cccnc1)C1Cc2ccccc2C1=O (stereo unspecified)	/	/	3395	-1	-3	/	/
NC(=NOC(=O)c1cccs1)c1cccc([N+](=O)[O-])c1	8	9	/	/	/	0	3.2
CCOC(=O)CN(c1cccc(C(C)=O)c1)S(C)(=O)=O	0	1	8255	-37	25	12	6.8
COC(=O)c1ccc(C=NOCC(=O)NCc2ccc(F)cc2)cc1	4	4	/	/	/	3	9.1
CC(C/C=N/NC(=O)COc1cc(Cl)ccc1Cl)c1ccccc1 (stereo unspecified)	/	/	4659	0	0	/	/
c1ccc2c(c1)nc(Nc1ccc3c(c1)OCO3)c1nnnn12	/	/	2447	-14	0	3	0.7

Full records, quoted from the list.
O=C(Cn1c(=O)n(CCC(=O)N2CCCCC2)c(=O)c2sccc21)NCc1ccccc1 is entered as Mtb hypoxia inh: -4; Mtb hypoxia inh growth: 2; Bead autofluor: 5332; PrP UTR inh: -1; BJeLR lethal: -1; ugtP null kill: 3; Sa RN4220 lethal: 2.1
CC(C/C=N/NC(=O)COc1cc(Cl)ccc1Cl)c1ccccc1 (stereo unspecified) is entered as Mtb hypoxia inh: /; Mtb hypoxia inh growth: /; Bead autofluor: 4659; PrP UTR inh: 0; BJeLR lethal: 0; ugtP null kill: /; Sa RN4220 lethal: /
N#Cc1cnn(-c2ccc(F)cc2)c1N is entered as Mtb hypoxia inh: -5; Mtb hypoxia inh growth: 11; Bead autofluor: 3154; PrP UTR inh: -1; BJeLR lethal: -5; ugtP null kill: -2; Sa RN4220 lethal: 2.0
